Screening data: PubChem, National Center for Advancing Translational Sciences (NCATS)
D2 ag: agonists of human D2 dopamine receptor (beta-arrestin). P14416. DiscoveRx PathHunter D2 beta-arrestin, luminescence, 90 min; 100% = 57 uM dopamine signal. activation, % (test concentration not listed). 360,000 tested, 0.084% active. AID 624465; in the data active = activation above about 40%; inconclusive = about 15% to 40%; inactive = below about 15%; also: compound concentration not given in the record; the text of the record calls up to 30% inactive
Target sequence (P14416 whole entry, looked up): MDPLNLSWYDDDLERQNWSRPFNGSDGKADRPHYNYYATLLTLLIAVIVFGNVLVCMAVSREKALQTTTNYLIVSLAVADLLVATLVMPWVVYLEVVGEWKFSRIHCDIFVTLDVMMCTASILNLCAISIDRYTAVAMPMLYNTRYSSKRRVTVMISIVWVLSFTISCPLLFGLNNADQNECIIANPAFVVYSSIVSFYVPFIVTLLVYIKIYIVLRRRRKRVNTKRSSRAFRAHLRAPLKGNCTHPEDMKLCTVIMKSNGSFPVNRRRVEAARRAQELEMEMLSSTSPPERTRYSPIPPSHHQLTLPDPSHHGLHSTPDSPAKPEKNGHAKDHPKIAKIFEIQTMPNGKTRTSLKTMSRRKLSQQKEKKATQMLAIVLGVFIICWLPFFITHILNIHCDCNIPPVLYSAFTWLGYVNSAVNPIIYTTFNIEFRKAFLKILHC
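Agonist mode: compounds alone added to overnight-plated D2 PathHunter cells for 90 min at 37 C, with 57 uM final dopamine (EC100) defining full response. Beta-arrestin recruitment detected by chemiluminescent reagent, read after 1 h at ambient temperature.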
CtBP-E1A inh: inhibitors of CtBP/E1A interaction. activity change, % (no concentration beside the values). 340,000 tested, 0.49% active. AID 651724. AlphaScreen GST-E1A/His-CtBP binding, 1536-well; active compounds read low; control for the full effect not named in the record; in the data active means activity change below about -65%; inconclusive means about -30% to -65%; inactive means above about -30%; also: % is scaled to controls: 0 for no effect and ±100 for the full control effect
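AlphaScreen with 125 nM GST-E1A and 125 nM His-CtBP (5X stocks) in Tris pH 8.0, 300 mM NaCl, BSA, Tween 20, TCEP. Compounds preincubated 2 h at 37 deg C, then glutathione donor/nickel acceptor beads added for 1 h at 37 deg C in dark.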
D2 PAM: positive allosteric modulators of human D2 dopamine receptor. DiscoveRx D2 beta-arrestin cells, luminescence, 90 min; 100% = 57 uM dopamine signal. potentiation, % (test concentration not listed). 360,000 tested, 0.23% active; active = potentiation of 50% or more; inconclusive = 30% to 50%; inactive = 30% or less;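 also: compound concentration not given in the record; tested on top of an EC20 dose of dopamine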
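PathHunter D2 cells, attached overnight at 37 deg C, received compound in DMSO plus dopamine at EC20 (50 nM final) for 90 min at 37 deg C. Beta-arrestin recruitment was read as luminescence after 1 h with detection reagent at ambient temperature.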
Six1-Eya2 inh: Six1/Eya2 interaction inhibition; AlphaScreen GST-Six1/His-Eya2 binding, biochemical; active compounds read low; control for the full effect not named in the record; activity change, % (test concentration not listed); 360,000 tested, 0.56% active; Q15475+O00167; in the data active = activity change below about -65%; inconclusive = about -30% to -65%; inactive = above about -30%; also: % is scaled to controls: 0 for no effect and ±100 for the full control effect
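Homogeneous AlphaScreen proximity assay pairing GST-Six1 with His-tagged Eya2 (added as 5X mix: 250 nM and 500 nM) in 50 mM Tris pH 8.0, 300 mM NaCl, 1 mM TCEP. Glutathione donor and nickel acceptor beads; 1 h, 37 °C, dark.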
TRPV1 PAM: enhances activation of the human vanilloid receptor TRPV1 | TRPV1-expressing cells, Fluo-8 calcium influx, capsaicin EC20 potentiation; host cell line not named in the record; control for the full effect not named in the record | potentiation, % at 8.33 µM | 320,000 tested, 0.02% active | AID 540277; active means potentiation above 80%; inconclusive means 30% to 80%; inactive means below 30%; also: 0% is about no effect
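TRPV1-expressing cells were cultured overnight at 35.5C and loaded with Fluo-8 calcium dye for 40 to 90 min at room temperature. After a 10 s baseline, compound was added and calcium influx was read kinetically for 3 min (ex 480/em 520 nm).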
PINK1 modulator: modulators of PINK1 expression. Potency, µM (series often up to 76.6 µM), for inactives: at the top dose activation (PINK1 increase), most hits filed as activators. 410,000 tested, 0.2% active. PINK1 immunofluorescence, high-content cytometry, 24 h; active = well fitted activation curve with a large enough effect; inconclusive = small, poorly fitted or top-dose-only effect; inactive = flat fitted curve, though single readings scatter; cell line not stated here;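 also: potency is read from the fitted curve at half-maximal effect; % of control where 0% means no effect; nearly all actives have a fitted effect of over 65% in size; a mitochondrial uncoupler was the plate control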
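Fluorescence from anti-PINK1 antibody, together with nuclear and cell stains, was scanned on a laser-scanning cytometer. Before staining, stable-line cells were incubated 24 hours with compounds at 5 concentrations; primary antibody 12 h at 10 degrees C.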
Sfp inh: blocks B. subtilis Sfp PPTase activity. Biochemical Sfp PPTase activity, qHTS. Potency, µM, without a hit: max response, negative = inhibition, most hits filed as inhibitors. 310,000 tested, 3.5% active; active = well fitted inhibition curve with a large enough effect; inconclusive = small, poorly fitted or top-dose-only effect, or another doubt; inactive = no such curve, though single readings can be large or run the other way;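 also: the enzyme is Sfp with the accession as filed and its product quenches rhodamine fluorescence; potency is read from the fitted curve at half-maximal effect; 0% = enzyme reaction without inhibitor and -100% = no enzyme wells; top concentration of the series not given in the record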
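Fluorescence-quenching assay: 15 nM Sfp-PPTase preincubated 15 min at room temperature with compound, then 5 uM rhodamine-CoA and 12.5 uM BHQ-2-labelled YbbR peptide added. Fluorescence (ex 525/em 598 nm) read at start and after 30 min; difference gives rate.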
* marks the source's active call; other numbers are inactive results; ? = inconclusive; . = no result given; & = joins results of further samples; [ ] = another dose, or the depositor's remark.

SMILES | D2 ag | CtBP-E1A inh | D2 PAM | Six1-Eya2 inh | TRPV1 PAM | PINK1 modulator | Sfp inh
O=C1CCC/C=C/C[C@@H](CC(=O)N(CCO)Cc2ccccc2)C(=O)NC[C@@H](c2ccccc2)O1 | -3.2 | -9 | -4 | 8 | . | 0.1% | .
O=C(CNc1ccccc1F)Nc1cc(S(=O)(=O)N2CCCCC2)ccc1Cl | -0.7 | 1 | 0 | 0 | 10 | 2.7% | .
CCc1c(-c2ccccc2)[n+](=O)c2c(n1[O-])CCC2 | -5.7 | -4 | -6 | 8 | -1 | 2.5% | 18%
O=C1NC[C@H](Cc2ccccc2)N(C[C@@H]2CCCN2C[C@H](Cc2ccccc2)N2C[C@H](Cc3ccccc3)N(CC3CCCCC3)C(=O)C2=O)C1=O | -4.4 | -16 | -5 | -5 | . | 2.9% | .
COc1ccc(C(CC(=O)O)NC(=O)c2ccco2)cc1 (stereo unspecified) | -2.2 | 7 | -10 | -3 | 1 | -0.2% | 14%
COc1ccc2oc(=N)c(C(=O)Nc3ccc(Br)cc3)cc2c1 | 0.9 | . | -7 | 13 | ? | 4.5% | 17%
COc1ccc(COC(=O)c2cc(S(=O)(=O)N3CCCCC3)ccc2N2CCOCC2)cc1 | -1.1 | 3 | -12 | -6 | -4 | -1.1% | .
O=C(CNC(=S)N(Cc1ccccc1)Cc1ccccc1F)NCc1ccccc1 | -5.4 | 0 | -40 | -9 | -30 | 24% | 13%
Cc1ccc(C)c(NC(=O)CCN2CCC(C)CC2)c1 | -5.3 | 0 | -9 | 0 | ? | -0.7% | 19%
Nc1cccc(CCc2nc3ccccc3[nH]2)c1 | 1.8 | 0 | 8 | 10 | -1 | -2.0% | -2%
COc1ccc2c(c1)CCc1c(C(=O)NCCc3ccc(OC)c(OC)c3)noc1-2 | 1.7 | -5 | 8 | -6 | 8 | 13%[38.3 µM] | 1%
CC(C)c1ccc(N(CC(=O)N/N=C/c2ccc(OC3CSC3)cc2)S(=O)(=O)c2ccccc2)cc1 | -1.5 | 0 | -3 | 0 | 11 | 4.3% | 16%
COC(=O)c1c(C(=O)OC)c(-c2ccc(C)cc2)n2c1CCC2 | 3.6 | -4 | -5 | -13 | -7 | 1.2%[38.3 µM] | -14%
C=C(C)CNC(=S)NNC(=O)c1cc(C)oc1C | -4.0 | -5 | -15 | 0 | 6 | -1.6% | 28%
O=C(COC(=O)Cc1ccsc1)Nc1ccccc1Cl | 0.1 | 8 | -15 | 11 | -15 | -1.3% | .
Cc1ccc(NC(=O)CN(C)C(=O)CSc2nccn2C)cc1 | 0.6 | 1 | -8 | 6 | . | 0.3% | .
COc1ccc(Cn2nnnc2C(c2cccs2)N2CCOCC2)cc1 (stereo unspecified) | 0.3 | 7 | 15 | 2 | -18 | 0.1% | 13%
O=C(NCC1CCCO1)C1CCC(=O)N1Cc1ccc(F)cc1 (stereo unspecified) | -0.7 | -8 | -11 | -2 | 4 | 3.5%[38.3 µM] | 6%
C=CC[N+](C)(C)C/C(Cl)=C(\Cl)c1ccccc1 | 0.2 | 16 | -4 | 1 | -6 | -0.5% | 22%
COc1ccc(NC(=O)c2ccc3c(SCC(=O)O)c4c(nc3c2)CCCC4)c(OC)c1 | -5.8 | -20 | 1 | -14 | -2 | 7.6%&0.9% | ?
O=C(Cc1c(F)cccc1Cl)OCC(=O)N1CCc2ccccc21 | -3.5 | 5 | -11 | 8 | . | -1.1% | .
CCCOc1ccc(C(=O)Nc2nc(C)c(Cc3ccc4c(c3)OCO4)s2)cc1 | 15 | . | -7 | 5 | 6 | -1.8% | ?
CC(=O)c1ccc(NC(=O)C2C3CCC(C3)C2C(=O)O)cc1 (stereo unspecified) | 5.7 | 9 | -15 | 3 | -2 | 0.4% | 11%
Cc1ccc(S(=O)(=O)N(C)c2ccc(C(=O)NCC(c3ccco3)N3CCCC3)cc2)cc1 (stereo unspecified) | -0.4 | -9 | -43 | 3 | . | -1.2% | .
Cc1ccc(Nc2c(-c3ccccc3O)nc3cnccn23)cc1 | 0.9 | -7 | 1 | -14 | 10 | -1.7% | -3%

(cont.)
SMILES | D2 ag | CtBP-E1A inh | D2 PAM | Six1-Eya2 inh | TRPV1 PAM | PINK1 modulator | Sfp inh
COc1ccc2nc(SCC(=O)NC3CCCCC3)[nH]c2c1 | 0.2 | -2 | 3 | 1 | -24 | 0.8% | 11%
CC(C)CCc1noc(CN2CCN(c3ccc(Cl)cn3)CC2)n1 | 7.5 | . | -1 | 6 | 3 | -0.9% | 3%
O=C(C1=C(O)C(=O)N(c2ncccn2)C1c1ccc(F)cc1)c1ccco1 (stereo unspecified) | 0.9 | -1 | -7 | 3 | 4 | -0.3% | -3%
CN(C)CCCNS(=O)(=O)c1ccc(Oc2ncc(C(F)(F)F)cc2Cl)cc1 | -6.2 | -2 | -23 | -2 | ? | 2.6% | 5%
OCCC1CN(CC2CCCCC2)CCN1C1CCCC1 (stereo unspecified) | -3.6 | -19 | -11 | 7 | -5 | -0.4% | 5%
O=C(CCc1nc(-c2ccccc2)no1)NCC1CCCO1 (stereo unspecified) | -4.8 | 10 | -3 | 5 | -8 | -2.5% | ?
COc1ccccc1N1C(=NC(=O)C2CCCCC2)SC2CS(=O)(=O)CC21 (stereo unspecified) | -1.8 | 2 | -6 | 2 | -4 | -0.7% | 17%
C=CCC(CC(O)COCCC)C(=O)NNC(=S)Nc1ccccc1 (stereo unspecified) | -7.8 | -6 | -11 | 34 | -1 | -0.2% | 7%
CC(C)COC(=O)n1c(SCC(=O)N(C)C)nc2ccccc21 | -5.6 | -3 | -7 | -1 | -31 | -1.0% | -2%
COc1ccc(-c2cc(-c3ccc(O)cc3)nc(N)c2C#N)cc1 | 5.1 | . | -6 | -17 | -17 | 4.5% | 16%
COc1ccc(Cn2c(CCCO)nc3ccccc32)cc1OC | -0.7 | 6 | -4 | 12 | 15 | -2.8% | 4%
O=C(NN=C1CCCCCC1)NC1CCCCC1 | -1.0 | 8 | -8 | 2 | 0 | -0.5% | 11%
O=[N+]([O-])c1ccc(OCC(O)CNCCNc2nccc(C(F)(F)F)n2)cc1 (stereo unspecified) | 0.0 | . | -9 | -5 | -11 | -0.5% | 23%
Cc1nn2c(N3CCN(c4ccccn4)CC3)cc(C(C)C)nc2c1-c1ccccc1 | 0.9 | -2 | -13 | 10 | 9 | 8.7% | 7%
CC(C)(C)c1cc(NC(=O)COC(=O)c2nccnc2N)n(-c2ccccc2)n1 | -4.3 | -2 | -15 | -2 | -17 | 1.4% | 2%
O=C(Nc1cccc([N+](=O)[O-])c1)Nc1ccc2c(c1)CCC2 | 0.1 | -5 | -36 | -13 | -7 | ? | -15%
O=C(Nc1ccc(Cl)cc1)Nc1csc([N+](=O)[O-])c1 | 10 | 0 | -3 | 11 | -4 | ? | -23%
COc1ccc(/C=C(\C#N)C(=O)OCC(=O)Nc2ccc(C(C)(C)C)cc2)cc1 | -0.4 | 10 | 2 | 9 | -25 | 2.8% | 10%
CN(C)[C@@H](CO)c1nnc([C@H](CCC(=O)O)NC(=O)C2CCNCC2)o1 | -2.4 | 4 | -4 | -1 | 5 | -0.4% | -23%
COc1ccc(NC(=O)Nc2ccc(N3CCOCC3)c3nonc23)c(OC)c1 | -3.4 | . | 0 | -4 | 5 | 4.9% | ?
CSCCC(NC(=O)c1ccccc1Br)C(=O)NCC(c1ccco1)N1CCCCC1 (stereo unspecified) | 4.0 | -24 | -13 | -1 | -6 | 0.9% | .
Cc1ccc(-n2c(C)cc(C=C(C#N)C#N)c2C)cc1 | -0.5 | -3 | -7 | 1 | 24 | -1.2% | -17%
CCOC(=O)c1[nH]c2c(c1-c1ccccc1)C(=O)CC(c1ccc(OC)c(OC)c1)C2 (stereo unspecified) | 0.7 | -12 | 0 | -8 | 15 | 2.2% | -1%
CC1=NN(C(=O)CCc2ccccc2)C(c2ccccc2)C1 (stereo unspecified) | 0.8 | -5 | 0 | 8 | -4 | 1.4% | -10%
O=C(NC1CCCCCC1)C(=S)NCc1ccccc1 | -2.9 | 10 | -6 | 15 | 21 | 2.2% | 56µM*

(next part)
SMILES | D2 ag | CtBP-E1A inh | D2 PAM | Six1-Eya2 inh | TRPV1 PAM | PINK1 modulator | Sfp inh
CC(=O)Nc1ccc(C2=NOC(C)(C)C(=O)N2Cc2cccc(C#N)c2)cc1 | -0.7 | 5 | -1 | -1 | . | 2.1% | .
CC(CNC(=O)C1CCCCC1)NC(=O)C1CCCCC1 (stereo unspecified) | -2.3 | 12 | 10 | 2 | 12 | . | -5%
Cc1ccc(C(=O)CCC(=O)Nc2ccccc2C)c(C)c1 | 6.0 | -6 | -5 | 7 | -2 | 2.9% | 15%
O=C(NCCCCl)C1CC(=O)N(CCc2ccc(F)cc2)C1 (stereo unspecified) | 8.7 | 1 | -1 | 8 | -21 | -0.1% | 9%
CC1(OCON)CCCc2ccccc21 (stereo unspecified) | 0.9 | -12 | -3 | 0 | 15 | 1.6% | 1%
CN(C(=O)c1ccc(NC(=O)Cc2cccc(NC(=O)C3CCCN(C(=O)CCc4ccccc4)C3)c2)cc1)C1CC1 (stereo unspecified) | 1.6 | 6 | -3 | -2 | . | 0.4% | .
O=C(CCN1C(=O)C2C3C=CC(C3)C2C1=O)NCCc1ccccc1 (stereo unspecified) | -0.7 | 4 | -13 | -4 | 30 | -0.6% | -1%
CC(CC(=O)N(C)c1c(N)n(Cc2ccccc2)c(=O)[nH]c1=O)c1ccccc1 (stereo unspecified) | 0.2 | 6 | 6 | 2 | 2 | 1.0% | .
Clc1cccc(N2CCN(CCCN3CCN(c4ccccc4)CC3)CC2)c1 | ? | -29 | -1 | -27 | . | 14% | .
Cc1ccc(-c2c(C)sc3nc(CN4CCN(CC(=O)NC5CC5)CC4)[nH]c(=O)c23)cc1 | 0.7 | -2 | -5 | 0 | -1 | 1.9% | .
O=C(COC(=O)CCN1C(=O)c2cccc([N+](=O)[O-])c2C1=O)NCc1ccccc1 | -2.8 | 8 | -2 | -4 | ? | 0.9% | -17%

Some values from the results shown:
Clc1cccc(N2CCN(CCCN3CCN(c4ccccc4)CC3)CC2)c1 in CtBP-E1A inh reads -29
COc1ccc(COC(=O)c2cc(S(=O)(=O)N3CCCCC3)ccc2N2CCOCC2)cc1 in Six1-Eya2 inh reads -6
Cc1ccc(C)c(NC(=O)CCN2CCC(C)CC2)c1 in Six1-Eya2 inh reads 0
